Mtb growth – Mycobacterium tuberculosis H37Rv growth inhibition, cell based, confirmatory dose response (AID 1949); most inactive calls were filed without a number and no value below 0 was filed; inhibition, % at 10 µg/mL; hits with a dose series show IC50 in µg/mL; 100,000 tested, 1.6% active;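 active means confirmed in a dose series; inconclusive means about 50% or more but not retested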;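 further: bacteria grown 7 days with compound before Alamar blue readout; 0% = untreated bacteria and 100% = reference antibiotic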
* = called active by the depositor; i = inactive; ? = inconclusive. This is a subset. The share of hits here may be higher or lower than overall.

| Structure | Mtb growth |
| --- | --- |
| COc1cc(C2Nc3ccccc3NC3=C2C(=O)CC(C)(C)C3)ccc1OC(C)=O (centres undefined) | i |
| COc1cc(CNCc2ccc(C)cc2)cc(OC)c1OC | 1.9% |
| O=C(Nc1ccc(S(=O)(=O)N2CCCCC2)cc1)c1cccc(I)c1 | i |
| Cc1ccc(CC23CN4CCN(CC(C4)C2=O)C3)c(C)c1 | 3.7% |
| CC1=C(C(=O)NCc2ccccc2)C(c2ccco2)NC(=S)N1 (centres undefined) | i |
| O=C(NCCC12CC3CC(CC(C3)C1)C2)c1ccccc1Cl | 0.2% |
| COc1c(Cl)cc(Cl)cc1C(=O)Nc1ccccc1-c1nc2ccccc2s1 | i |
| CCOc1ccc(NC(=O)CC#N)cc1 | i |
| Cc1nn(Cc2ccc(Cl)cc2)c(C)c1NC(=O)C(c1ccccc1)c1ccccc1 | i |
| CCN(CC)c1ccc(C2C(C(=O)OC)=C(C)NC3=C2C(=O)CC(c2cccs2)C3)cc1 (centres undefined) | 9.6% |
| COc1ccc(OC)c(S(=O)(=O)Nc2cc(OC)c(Cl)cc2OC)c1 | i |
| Cc1cccc(C)c1NC(=O)c1ccc(OC(C)C)cc1 | i |
| CC1CN(S(=O)(=O)c2cc([N+](=O)[O-])ccc2N2CCC(C(N)=O)CC2)CC(C)O1 (centres undefined) | i |
| O=c1c2ccccc2[nH]c(=S)n1CCCN1CCCC1 | i |
| O=C(O)C1C2CCC(O2)C1C(=O)NCc1ccc2c(c1)OCO2 (centres undefined) | i |
| Cc1ccc(S(=O)(=O)N2CCCN(S(=O)(=O)c3ccc(C)c(C)c3)CC2)cc1C | i |
| Cc1cc(C)nc(Nc2n[nH]c(-c3cccc(Cl)c3)n2)n1 | i |
| O=C(Nc1cccc(O)c1)c1ccccc1C(F)(F)F | i |
| COc1ccc2oc(-c3cccc(NC(=O)CSc4ccc(Cl)cc4)c3)nc2c1 | 7.6% |
| COc1cccc(-c2csc(NC(=O)C3COc4ccccc4O3)n2)c1 (centres undefined) | 43.9% |
| O=C1C(=O)N(Cc2c(F)cccc2Cl)c2ccccc21 | i |
| COc1ccc(OCCSc2nc3ccccc3s2)cc1 | i |
| C=CCOCCN1C(=O)C2C3C=CC(C2C1=O)C1C2C(=O)N(CCOCC=C)C(=O)C2C31 (centres undefined) | i |
| Fc1ccc(NC(=S)NN2CCOCC2)c(F)c1 | i |
| COc1ccc(C(=O)CC2(O)C(=O)Nc3ccc(C)cc32)c(OC)c1 (centres undefined) | i |
| CCSCC(=O)Nc1ccccc1F | i |
| O=C(Nc1cccc(CCc2ccccn2)c1)c1cc(F)c(F)cc1Cl | i |
| Cc1ccc(C(=O)CNc2cc(C)ccc2C)cc1 | i |
| CCOC(=O)C(=O)Nc1ccc(OCC)cc1 | i |
| O=C(CCSc1nc2ccccc2s1)Nc1ccccc1 | i |

| Structure | Mtb growth |
| --- | --- |
| CCc1ccc(OC(=O)c2cc(OC)c(OC)c(OC)c2)c(Br)c1 | 48.2% |
| COc1cc(N)ccc1NC(=O)C(C)C | i |
| COc1ccc(Br)cc1C(=O)O | i |
| O=C1C2CC=CCC2C(=O)N1C1CCCCC1 (centres undefined) | i |
| COc1cc(SC)ccc1C(=O)Nc1ccon1 | i |
| Cc1ccc(S(=O)(=O)N2CCN(c3ccc(C)c(C)c3)CC2)cc1 | 5.1% |
| Cc1ccccc1NC(=S)NCc1ccc(F)cc1 | 4.0% |
| Clc1ccccc1COc1ccc(-c2cnc3ccccc3n2)cc1 | i |
| Cc1ccccc1NC(=O)CC1CCCCC1 | 7.0% |
| O=C(CSCc1ccccc1Cl)Nc1ccc(-c2nnc(-c3ccco3)o2)cc1 | 0.4% |
| CCOC(=O)CCc1c(C)c2cc(Cl)c(OCc3ccc(Br)cc3)cc2oc1=O | i |
| CCOc1ccc(C(=O)Nc2ccc(OCC)cc2[N+](=O)[O-])cc1 | i |
| CCN(CC(N)=O)S(=O)(=O)c1ccc(OC)cc1 | i |
| Cc1cccc(NC(=S)NC(=O)c2sc3ccccc3c2Cl)c1 | 6.1% |
| COc1cc(NC(=O)COc2ccccc2F)cc(OC)c1OC | i |
| Fc1ccc(C2CC(c3ccc(Cl)cc3)n3ncnc3N2)cc1 (centres undefined) | i |
| COc1c(Cl)cc(C(=O)Nc2ccc(-c3nc4ncccc4o3)cc2)cc1Cl | i |
| Cc1ccc(SCCC(=O)N2CCN(Cc3ccccc3)CC2)cc1 | i |
| CCOC(=O)N1CCN(C(=O)c2nc3ccccc3s2)CC1 | i |
| CCOC(=O)c1cc(-c2ccccc2)sc1NC(=O)CSc1nnnn1-c1ccccc1 | 6.5% |
| O=S(=O)(Nc1ccccc1F)c1c(Cl)cccc1Cl | i |
| CCOc1ccccc1NC(=S)Nc1ccc(OC)cc1C | i |
| Cc1ccnc(NC(=O)c2cccc(Cl)c2)c1 | i |
| O=C(Nc1ccc(Br)cc1F)C1CCN(C(=O)c2cccc(Cl)c2)CC1 | i |
| O=C(NC(c1ccccc1)c1ccccc1)c1ccc(Br)cc1 | i |
| O=C(O)c1ccc(CNc2ccccc2)cc1 | i |
| CC(=O)Nc1ccc(S(=O)(=O)Nc2nnc(CC(C)C)s2)cc1 | i |
| COc1ccccc1NC(=S)NC(C)=O | i |
| CCOc1ccc(-c2nnc(SCC(=O)c3ccccc3N)n2C)cc1 | i |
| CC(=O)N1N=C(c2ccc(C)o2)CC1c1ccc(Br)cc1 (centres undefined) | 5.8% |

An excerpt of these results, with each value named:
Cc1ccnc(NC(=O)c2cccc(Cl)c2)c1
- Mtb growth = i
O=C(Nc1ccc(Br)cc1F)C1CCN(C(=O)c2cccc(Cl)c2)CC1
- Mtb growth = i
O=C(NC(c1ccccc1)c1ccccc1)c1ccc(Br)cc1
- Mtb growth = i
O=C(O)c1ccc(CNc2ccccc2)cc1
- Mtb growth = i

3 structures out of the list, sorted by count of non-hydrogen atoms, lowest first:
| Structure | Mtb growth |
| --- | --- |
| Fc1ccc(C2CC(c3ccc(Cl)cc3)n3ncnc3N2)cc1 (centres undefined) | i |
| COc1c(Cl)cc(Cl)cc1C(=O)Nc1ccccc1-c1nc2ccccc2s1 | i |
| CCN(CC)c1ccc(C2C(C(=O)OC)=C(C)NC3=C2C(=O)CC(c2cccs2)C3)cc1 (centres undefined) | 9.6% |

Continuation.
| Structure | Mtb growth |
| --- | --- |
| Cc1ccc(-c2csc3[nH]c(=S)n(Cc4ccccc4)c(=O)c23)cc1 | 1.7% |
| O=c1c2ccccc2c2ccccc2c(=O)n1Cc1ccccc1 | i |
| O=C(CNS(=O)(=O)c1ccc(F)cc1)N1CCN(c2ccccc2)CC1 | 1.7% |
| O=C(NCc1cccnc1)c1cc2cc(Cl)ccc2oc1=O | 22.2% |
| O=S(=O)(Nc1ccc(OCc2ccccc2)cc1)c1ccc2c(c1)OCCO2 | i |
| CCc1cccc(C)c1NC(=O)CSc1nnc(Cc2ccccc2)o1 | i |
| COc1ccc(C(=O)Nc2cccc3ccccc23)cc1[N+](=O)[O-] | 6.1% |
| CCOc1ccc(C(=O)O/N=C(\N)c2ccccn2)cc1OCC | i |
| COc1ccc(/C=C2/C(=O)NC(=O)N(c3ccccc3OC)C2=O)cc1O | i |
| CCCCOc1ccc(C(=O)NC(=S)Nc2cccc(C(=O)O)c2C)cc1 | 2.5% |
| CCOc1ccccc1OCC(=O)NC(C)c1ccccc1 (centres undefined) | i |
| CCC(C)c1ccc(C(C)NC(=O)c2cccc(OC)c2OC)cc1 (centres undefined) | i |
| Fc1cccc(C2NC(=S)NC3=C2CCc2ccccc23)c1 (centres undefined) | 28.9% |
| CCCCc1ccc(NC(=O)COc2c(C)cccc2C)cc1 | i |
| CCOC(=O)C1NN=C(C(=O)c2ccccc2)C1c1ccccc1 (centres undefined) | 0.5% |
| COc1ccc(Cl)cc1NC(=O)c1ccc(N(Cc2ccc(Cl)cc2)S(C)(=O)=O)cc1 | i |
| Cc1ccc(OCCNC(C)C)c([N+](=O)[O-])c1 | i |
| Cc1nc2sc3c(c2c2nc(-c4ccncc4)nn12)CC(C)(C)OC3 | i |
| CC(C)Oc1ccc(NC(=O)c2cccnc2)cc1 | i |
| CCCOc1cccc(/C=C(/C#N)c2ccc([N+](=O)[O-])cc2)c1 | i |
| CN(C(=O)Cc1coc2ccc3ccccc3c12)c1ccccc1 | 25.1% |
| O=S(=O)(Nc1cccnc1)c1c(Cl)cccc1Cl | i |
| CCOc1ccc(OCC(=O)NC(C)C)cc1 | i |
| Cc1ccccc1CN(c1ccc(C(=O)Nc2ccccc2Cl)cc1)S(C)(=O)=O | 3.0% |
| Cn1c(COc2ccc(C3CCCCC3)cc2)nnc1SCC(=O)N1CCc2ccccc21 | 1.6% |
| COc1ccccc1NC(=O)CSc1n[nH]c(-c2ccncc2)n1 | i |
| CCn1c(CNC(=O)c2ccccc2F)nnc1SCC(=O)Nc1nccs1 | i |
| COc1ccc(C2C=C(c3ccc(Cl)c(Cl)c3)Nc3ncnn32)cc1 (centres undefined) | 1.1% |
| O=C(CS(=O)(=O)Cc1ccccc1)N1CCc2ccccc21 | i |
| O=C(Cc1ccc(-c2ccccc2)cc1)Nc1ccc2c(c1)OCCO2 | i |

| Structure | Mtb growth |
| --- | --- |
| CCc1ccc(NC2=C(Cl)C(=O)N(Cc3ccccc3)C2=O)cc1 | i |
| Cn1cc(Cl)c(C(=O)NC2CCCC2)n1 | i |
| O=C(Nc1ccc(-c2nc3ccccc3s2)c(Cl)c1)c1cccs1 | i |
| Cc1ccc(CSCCNC(=O)c2ccc(N(Cc3ccc(C)cc3)S(C)(=O)=O)cc2)cc1 | i |
| Cc1nc(SCc2c(F)cccc2Cl)n[nH]1 | i |
| O=C(NNC(=S)NCc1ccco1)C(Sc1ccccc1)c1ccccc1 (centres undefined) | i |
| O=C(O)CNS(=O)(=O)c1ccc(-c2ccccc2)cc1 | i |
| Cc1cc(C)cc(NC(=O)COc2ccc3c4c(c(=O)oc3c2)CCC4)c1 | 8.1% |
| CCCC(=O)Nc1ccccc1NC(=O)COc1ccccc1OC | i |
| O=S(=O)(Nc1ccc(Oc2ccccc2)cc1)c1ccc(Br)s1 | i |
| O=C(Nc1ccc(F)cc1F)c1cc2ccccc2o1 | i |
| Cc1cccc(OCC(O)CN2CCN(C(c3ccccc3)c3ccccc3)CC2)c1C (centres undefined) | 2.94µg/mL* |
| Cc1ccc(OCCCN2CCNCC2)c(I)c1 | i |
| CCn1nc(C)c(NC(=O)CSc2nnc(-c3ccco3)n2C)c1C | 2.4% |
| COc1cc(C(=O)NCc2cccnc2)ccc1OCc1ccc(Cl)cc1 | ? |
| O=C(CN1CCOCC1)Nc1ccc(Cl)cc1Cl | i |
| Cn1c(=O)c2c(ncn2CCNC2=NCCC2)n(C)c1=O | i |
| O=C(Nc1sc2c(c1C(=O)Nc1ccc(Oc3ccccc3)cc1)CCC2)c1ccco1 | 8.7% |
| COc1ccc(OC)c(NC(=O)NC(C)C23CC4CC(CC(C4)C2)C3)c1 (centres undefined) | i |
| Cc1ccccc1-c1nnc(SCC(=O)Nc2ccccc2[N+](=O)[O-])n1C | i |
| CCCCOc1cccc(C(=O)Nc2ccc(NC(=O)c3ccccc3Cl)c(OC)c2)c1 | 46.9% |
| Clc1cc(Br)ccc1OCCNC1CCCC1 | i |
| Nc1ncnc2oc(-c3ccco3)c(-c3ccco3)c12 | 1.3% |
| Cn1c(=O)c2c(nc3n2CC(=O)N3c2cccc(Cl)c2)n(C)c1=O | i |
| COc1cc(C2NC(=O)NC(C)=C2C(=O)OCC(F)(F)F)cc(Cl)c1O (centres undefined) | i |
| CCc1ccccc1OCC(=O)Oc1cc(Cl)ccc1Cl | i |
| CC1CCN(CC(=O)N2c3ccccc3Sc3ccccc32)CC1 | 2.6% |
| COc1cc(SC)ccc1C(=O)NCCc1c[nH]c2ccc(C)cc12 | 1.3% |
| CCC(Oc1ccccc1)C(=O)Nc1ccc(C(C)CC)cc1 (centres undefined) | i |
| Fc1ccc(OCc2nn3c(-c4ccccc4)nnc3s2)cc1 | ? |

| Structure | Mtb growth |
| --- | --- |
| CCOCCCNS(=O)(=O)Cc1ccccc1 | i |
| Cc1ccccc1-c1nnn(CC(=O)Nc2cccc(C)c2C)n1 | i |
| CCCCNCCOc1c(Cl)cc(C)cc1Br | i |
| O=c1c2ccccc2nc(/C=C/c2ccc([N+](=O)[O-])o2)n1-c1cccc(O)c1 | 0.65µg/mL* |
| Cc1ccc(C)c(OCC(=O)Nc2ccc(-c3nnc(-c4ccccc4)o3)cc2)c1 | i |
| CCOC(=O)COc1cc2c3c(c(=O)oc2cc1C)CCCC3 | ? |
| CCC(C)NC(=O)c1ccc(CN(c2ccc(C)c(C)c2)S(C)(=O)=O)cc1 (centres undefined) | 3.5% |
| C(=C\c1nc2ccccc2n1Cc1ccc2ccccc2c1)/c1ccco1 | 49.1% |
| O=C(Nc1sc2c(c1C(=O)NC1CCS(=O)(=O)C1)CCCC2)c1ccc(F)cc1 (centres undefined) | 0.7% |
| CCOc1ccccc1N(CC(=O)OC)S(=O)(=O)c1ccc(SC)cc1 | i |
| CN(c1ccc(C(=O)Nc2ccc(C(F)(F)F)cc2)cc1)S(C)(=O)=O | i |
| O=c1[nH]c2ccc(Cl)cc2c(-c2ccccc2)c1NS(=O)(=O)c1ccccc1 | i |
| CCC(C)NS(=O)(=O)c1ccc(NC(=O)c2ccc(Cl)cc2)cc1 (centres undefined) | i |
| COc1ccc(S(=O)(=O)N2CCC(C(=O)NCc3ccccn3)CC2)cc1Cl | i |
| Cc1ccc(C)c(OCC(=O)Nc2ccc(N3CCCCC3)cc2)c1C | 6.2% |
| Cc1ccc(Cn2cnc3cc(C)c(C)cc32)cc1 | 8.24µg/mL* |
| CCc1cc(CC)c(/C=C(\C#N)C(N)=O)c(CC)c1 | i |
| COc1cc(C)c(NC(=O)c2cc(OC)c(OC)c(OC)c2)cc1C(C)C | i |
| CC(C)C(=O)NCCN1CCOCC1 | i |
| CC1(C)CC(NC(=O)C(c2ccccc2)c2ccccc2)CC(C)(C)N1 | i |
| Cc1ccc(-c2noc(CSc3ccccc3)n2)cc1 | 1.5% |
| O=C(Nc1ccc(F)cc1)C1CC(=O)N(c2ccccc2Cl)C1 (centres undefined) | i |
| CN(C(=O)c1ccc(N2CCCC2)c([N+](=O)[O-])c1)c1ccccc1 | 4.0% |
| Cc1cc(Cl)c(OCCOCCN2CCOCC2)c(Br)c1 | i |
| Nc1cc(N)nc(SCC(=O)c2ccc(Br)cc2)n1 | i |
